# Screens from PubChem.
# Mtb bLac sens = beta-lactam sensitization of Mtb H37Rv; AID 434955; 330,000 compounds, 0.27% hits; inhibition, % at 25 µM; M. tuberculosis H37Rv growth with meropenem, percent inhibition; hits of this screen are not shown here;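 active = about 74% or more and at least 40 points above the plate without the antibiotic, then above 30% in a dose series; inconclusive = first-round hits that could not be retested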;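 note: growth measured after seven days incubation then overnight dye step; 0% = bacteria only wells and 100% = bacteria with antibiotic; twin plates without the antibiotic show which effects depend on it; some results filed as inactive read as strong as hits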
# Arbovirus inh = arbovirus infection inhibition; inhibition, % at 10 µM; 200,000 compounds, 0.37% hits; arbovirus infection cell-based antiviral screen; AID 1251;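 active = inhibition from about 30%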;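 note: bluetongue infection of BSR cells; cell survival read as ATP light after 72 h; 0% = infected wells without compound and 100% = uninfected wells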
# Mtb H37Rv = M. tuberculosis H37Rv growth inhibitors, H37Rv strain (AID 1626) | M. tuberculosis H37Rv growth inhibition; higher % means a stronger effect | inhibition, % at 10 µM, or IC50 in µM where a hit was titrated | 220,000 compounds, 0.95% hits;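 active = confirmed in a dose series; inconclusive = inhibition above 80% but not taken into the dose series; inactive = below 80% or under 30% at every dose of the series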;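 note: bacteria incubated seven days before Alamar blue readout; 0% = bacteria only wells and 100% = bacteria with antibiotic wells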
# RecA splice inh = blocks M. tuberculosis RecA intein splicing | cell-free RecA intein splicing, fluorescence | P9WHJ3 | 290,000 compounds, 0.75% hits | inhibition, %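 (about 9 µM by stock and volumes)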 | AID 2221; in the data active = inhibition above about 30%; inconclusive = no clear call, values can overlap the other calls;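 note: 0% = vehicle wells and 100% = reference inhibitor control wells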
# Target sequence (P9WHJ3 whole entry, looked up, canonical isoform): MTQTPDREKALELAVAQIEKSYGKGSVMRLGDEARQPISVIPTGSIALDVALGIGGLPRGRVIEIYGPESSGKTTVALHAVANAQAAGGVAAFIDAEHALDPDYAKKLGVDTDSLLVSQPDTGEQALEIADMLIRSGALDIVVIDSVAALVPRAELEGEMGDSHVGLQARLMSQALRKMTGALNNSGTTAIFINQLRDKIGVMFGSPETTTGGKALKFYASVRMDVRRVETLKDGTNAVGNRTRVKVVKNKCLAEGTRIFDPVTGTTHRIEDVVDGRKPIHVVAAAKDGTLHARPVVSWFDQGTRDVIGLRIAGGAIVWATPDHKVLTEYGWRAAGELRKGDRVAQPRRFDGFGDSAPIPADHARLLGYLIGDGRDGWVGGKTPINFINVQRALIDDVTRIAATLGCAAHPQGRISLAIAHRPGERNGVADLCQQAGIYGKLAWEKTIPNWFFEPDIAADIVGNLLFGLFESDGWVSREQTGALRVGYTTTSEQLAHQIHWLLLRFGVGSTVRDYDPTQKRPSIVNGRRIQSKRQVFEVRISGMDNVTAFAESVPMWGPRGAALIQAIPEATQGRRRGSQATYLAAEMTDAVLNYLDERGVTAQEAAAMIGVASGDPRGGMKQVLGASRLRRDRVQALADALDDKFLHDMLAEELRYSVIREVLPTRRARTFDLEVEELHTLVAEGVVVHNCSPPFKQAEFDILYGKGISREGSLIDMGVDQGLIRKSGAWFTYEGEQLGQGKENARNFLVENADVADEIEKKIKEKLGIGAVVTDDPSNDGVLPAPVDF
# YopH inh = blocks Yersinia enterocolitica YopH tyrosine phosphatase. AID 898. inhibition, %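 (about 10 µM by stock and volumes)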. fluorescence Ex485/Em525. 140,000 compounds, 0.16% hits;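 active = inhibition of 50% or more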;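 note: controls were vehicle for no effect and minimum signal wells for full effect; inactives centre near -20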
# Arbovirus inh repeat = also measured in Arbovirus inh; calls as there; inhibition, %; measured here: 10K subset replicate screen; many hits read low in the repeat;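 first of two repeat runs on a subset; 0% = infected and 100% = uninfected wells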
# * = called active by the depositor; ? = inconclusive; · = no result given.
# Sample of the layout (seven entries):
SMILES,Mtb bLac sens,Arbovirus inh,Mtb H37Rv,RecA splice inh,YopH inh,others
Cc1cc(C)c2nc(SCC(=O)Nc3ccccc3N3CCOCC3)c(C#N)cc2c1,1,·,·,0.5,-8,
O=C(O)c1cc2ccccc2c(N=Nc2cccnc2)c1O,41,·,·,-4.2,·,
CSc1ccc(/C=C(/NC(=O)c2ccco2)C(=O)N2CCCCCC2)cc1,?,·,·,2.9,·,
OC1(c2ccc3c(c2)OCO3)CCN(Cc2ccccn2)CC1,0,-1,8%,-0.5,-25,
CCOC(=O)C1CCN(S(=O)(=O)c2ccc(-c3ccccn3)s2)CC1,-3,·,-6%,-0.2,·,
CN=C1NN=C(c2cc(C)n(-c3ccc(Cl)cc3)c2C)CS1,-3,2,6%,0.4,·,
CC(C)(O)C#Cc1ccc(C(=O)N2CCN(c3ccc(Cl)cc3)CC2)cc1,-4,12,·,0.0,·,

# All compounds of this part, from the first entry:
SMILES,Mtb bLac sens,Arbovirus inh,Mtb H37Rv,RecA splice inh,YopH inh,others
Cc1cc(C)c2nc(SCC(=O)Nc3ccccc3N3CCOCC3)c(C#N)cc2c1,1,·,·,0.5,-8,
O=C(O)c1cc2ccccc2c(N=Nc2cccnc2)c1O,41,·,·,-4.2,·,
CSc1ccc(/C=C(/NC(=O)c2ccco2)C(=O)N2CCCCCC2)cc1,?,·,·,2.9,·,
OC1(c2ccc3c(c2)OCO3)CCN(Cc2ccccn2)CC1,0,-1,8%,-0.5,-25,
CCOC(=O)C1CCN(S(=O)(=O)c2ccc(-c3ccccn3)s2)CC1,-3,·,-6%,-0.2,·,
CN=C1NN=C(c2cc(C)n(-c3ccc(Cl)cc3)c2C)CS1,-3,2,6%,0.4,·,
CC(C)(O)C#Cc1ccc(C(=O)N2CCN(c3ccc(Cl)cc3)CC2)cc1,-4,12,·,0.0,·,
CS(=O)(=O)NN1C(=O)c2ccccc2NC1c1ccccc1 (centres undefined),-1,2,2%,·,·,
CCC(C)NS(=O)(=O)c1ccc(OCC(=O)NCc2cccnc2)cc1 (centres undefined),?,7,-7%,0.5,-43,
CC(=O)c1cc(CC=C(C)C)c(O)c(CC=C(C)C)c1O,32,12,·,0.1,-17,
Cn1nc(C(F)(F)F)c(-c2cccc(C(F)(F)F)c2)c1NC(=O)c1ccco1,2,·,4%,-2.9,·,
Cc1ccc(NC(=O)C2CCCN2S(=O)(=O)c2ccc3c(c2)n(C)c(=O)c(=O)n3C)c(C)c1 (centres undefined),-1,·,2%,2.7,·,
CNC(=O)CSc1nc2[nH]ncc2c(=O)[nH]1,-7,20,4%,-1.1,·,
CC(=O)O/N=C(\N)Cc1ccc(-c2csnn2)cc1,-2,·,-7%,-2.4,·,
Cc1nc2ccccc2n1CCC(=O)O,-13,11,-7%,-1.1,-35,
Nc1nonc1C(=O)N/N=C/c1cc(Br)ccc1O,3,0,0%,·,·,
Cc1ccc(C(=O)Nc2ccccc2NC(=O)c2ccc(C)o2)o1,1,6,4%,·,-25,Arbovirus inh repeat=1
Cc1cnc(CN(C)C(=O)c2cc(COc3c(F)cccc3F)on2)[nH]1,-3,2,1%,2.9,·,
NS(=O)(=O)c1ccc(CCNC(=O)NC2CCCCC2)cc1,-5,·,-6%,-0.2,·,
Cc1cc(OC(C)C(=O)NCCN2CCOCC2)c2c(C)cc(=O)oc2c1 (centres undefined),-6,·,·,-0.2,·,
COc1cccc(CN2C(=O)CN(C3CCCCC3)C(=O)C2c2ccc(F)cc2)c1 (centres undefined),1,-1,5%,0.9,-33,
Nc1ccnc(Oc2ccc(F)cc2)c1,2,7,15%,1.3,-12,
N#Cc1ccccc1NC1=CC(=O)CCC1,-6,6,-7%,0.0,-18,
COc1ccc(-n2nc(C(=O)NCC(=O)NCc3ccccc3OC)c3ccccc3c2=O)cc1,-5,·,·,0.7,·,
CCOC(=O)CSc1nc2c([nH]c3ccccc32)c(=O)n1C,2,0,-2%,0.5,-21,
COc1ccc(N2C(=O)C3C4C=CC(c5ccccc5)(C3C2=O)C2C(=O)N(c3ccc(OC)cc3)C(=O)C42)cc1 (centres undefined),-3,12,5%,3.0,·,
O=C1NN(c2ccccc2)C(=O)/C1=C/c1ccc(-c2ccc(C(=O)O)cc2)o1,3,·,·,-7.9,·,
Cn1c(Sc2ccc(C(F)(F)F)cc2[N+](=O)[O-])nnc1-c1ccccc1,-10,-1,0%,3.4,-22,
COc1ccc(CN(C)C(=O)c2ccccc2Sc2ccccc2C#N)c(OC)c1,0,·,·,8.7,·,
CCC(=O)Nc1nc2ccc(S(C)(=O)=O)cc2s1,-10,1,0%,-2.3,4,
O=C(Nc1ccc(Nc2ccccc2)cc1)C(Cl)Cl,64,-18,5%,-1.8,-17,
CCC(C)Sc1cccc(-c2nc3ccc(C)cn3c2NCc2ccccc2)c1 (centres undefined),25,·,·,12,·,
COc1ccc(C(=O)c2ccc(OC)cc2O)c(O)c1,-8,5,7%,·,-30,
c1ccc2c(c1)CCCN2Cc1nnc2n1CCCCC2,10,7,-7%,-1.5,-26,
O=c1c2c(n3cnnc3n1-c1ccccc1)-c1ccccc1CC21CCCC1,2,5,-1%,-4.4,-39,
CN(C)c1ccc(C2C3C(=O)N(c4ccc(C(=O)O)cc4)C(=O)C3ON2c2ccccc2)cc1 (centres undefined),3,1,-3%,-4.4,-25,
c1ccc(NCn2cncn2)nc1,4,-4,-6%,-1.1,-8,
COc1ccc(-c2ccc([C@H]3[C@H]4C=CC[C@@H](C)[C@@H]4C(=O)N3Cc3ccccc3)c(F)c2)cc1C,-1,·,7%,18,·,
CCOc1ccc2nc(SCC(=O)NC3CCS(=O)(=O)C3)[nH]c2c1 (centres undefined),-8,11,-5%,0.5,-45,
CCc1cc(=O)oc2cc(C)c(CN3CCCCC3)c(O)c12,4,12,-4%,-3.9,-42,
COc1ccc(OCCOC(=O)c2cc(S(=O)(=O)N3CCOCC3)c(Cl)cc2Cl)cc1,1,·,·,3.6,·,
CC1=NN(C(=O)Cc2ccc(C)cc2)C(O)(c2cccnc2)C1 (centres undefined),0,-5,-1%,-1.2,5,
CCCCC(=O)NS(=O)(=O)c1ccc(N=NN(CC)CC)cc1,6,-1,-8%,-0.4,·,
CC(C)OC(=O)C1C(=O)CC(C)(O)C(C(=O)OC(C)C)C1c1ccccc1 (centres undefined),1,4,0%,-0.5,·,
CCC(=O)Nc1ccc2c(c1)C(=O)N(C1CCCCC1)C2=O,8,4,2%,-1.0,16,
CC1(c2cc([N+](=O)[O-])cc([N+](=O)[O-])c2)CC(C)(C)N(C(=O)c2ccccc2)c2ccccc21 (centres undefined),78,-2,3%,·,-55,
CC(=O)c1nn(-c2cccc(Br)c2)cc1C(=O)c1ccc(C)cc1,3,-3,1%,0.4,-20,
CCOc1ccc(C(C(=O)Nc2ccc(F)cc2)N(C(=O)Cn2nnc3ccccc32)C2CC2)cc1 (centres undefined),0,-12,2%,2.6,-39,
O=[n+]1cc(-c2cccc3ccccc23)n([O-])c2c1CCC2,-13,7,3%,-3.2,-26,
NNC(=O)c1sccc1OCc1cccc(C(F)(F)F)c1,-2,-8,-6%,6.5,·,
CNC(=O)c1cc(NC(=O)CCn2nc(-c3ccccc3)c3ccccc3c2=O)ccc1OC,-9,·,-8%,1.6,·,
Cn1nc(C(=O)NC2CCCc3ccccc32)ccc1=O (centres undefined),72,7,-1%,1.3,·,
Cn1nnnc1SCC(=O)N1CCOCC1,3,5,1%,0.1,-24,
CCOc1cc(/C=C\[N+](=O)[O-])ccc1OCC(=O)Nc1ccccc1C,100,-37,54%,4.3,-41,
CCOC(=O)c1ccc(NC(=O)CNC(=O)c2ccco2)cc1,2,·,·,-0.7,·,
O=C(CN1CC(c2ccccc2)CC1=O)OCc1cccc(Br)c1 (centres undefined),5,-7,-3%,13,2,
O=C(C1CCCCC1)N1CCC(O)(c2ccc(Cl)cc2)CC1,7,·,·,1.6,·,
CN(/N=C/C=C/c1ccccc1)C1=NS(=O)(=O)c2ccccc21,0,4,8%,2.9,-13,
COc1ccc(CCNC(=O)COc2ccc(-c3ccccc3)cc2)cc1OC,8,4,7%,-2.7,-18,
N/C(=N\OC(=O)Cc1ccc([N+](=O)[O-])cc1)c1ccc([N+](=O)[O-])cc1,3,·,·,0.0,·,

# Next structures
SMILES,Mtb bLac sens,Arbovirus inh,Mtb H37Rv,RecA splice inh,YopH inh,others
CCC(CC)c1nn2c(N)c(/C=C3\C=Nc4ccccc43)c(=O)nc2s1,-12,·,-7%,-17,·,
O=C(CN1CCN(c2ccccc2F)CC1)c1ccc(O)c(O)c1,4,·,·,-7.5,·,
O=C(c1ccco1)N(Cc1cccc(Br)c1)C1CCS(=O)(=O)C1 (centres undefined),1,·,·,1.1,·,
COc1ccc(C(=O)N2CCCC(O)C2)cc1OC1CCN(C(C)C)CC1 (centres undefined),2,·,·,-1.8,·,
CN(C)c1ccc(C(=O)OCC(=O)Nc2ccc(N3CCOCC3)cc2)cc1,6,·,-5%,·,·,
COCCn1c(N)c(C(=O)NS(=O)(=O)c2ccc(C)cc2)c(=O)[nH]c1=O,7,7,1%,3.5,·,
COc1ccc(S(=O)(=O)N(CC(=O)NC2CC3CCC2C3)c2ccccc2OC)cc1 (centres undefined),-6,·,·,1.4,·,
CC1CCN(c2oc(-c3ccccc3Cl)nc2C#N)CC1,4,17,8%,-1.7,-31,
COC(=O)[C@@]1(Cc2ccc(OC)cc2)[C@H]2c3cc(C(=O)N4CCCC4)n(CCN4CCNC4=O)c3C[C@H]2CN1C(=O)c1ccccc1,·,0,-5%,·,-21,
COc1ccc(N=N/C(=C\O)C(=O)c2ccco2)cc1,6,-17,20%,-4.5,·,
C=CCNC(=O)CN(c1ccc(OC)cc1OC)S(C)(=O)=O,0,7,-9%,-1.2,-10,
NNC(=O)COc1ccc(-c2nccc(-c3ccc(F)cc3)n2)cc1,3,·,·,1.3,·,
CC(C)NC(=O)CSc1nc2ccccc2n1CC(=O)N1CCc2ccccc21,-3,3,0%,-2.1,-45,
COc1cc2cc(C(=O)N3CCN(Cc4ccc5c(c4)OCO5)CC3)c(=O)oc2cc1OC,-5,·,5%,-101,·,
CCCS(=O)(=O)NCCc1cc2cc(C)c(C)cc2[nH]c1=O,-5,1,-8%,-1.5,-38,
O=C(Nc1ccnn1C1CCN(Cc2cc3ccccc3[nH]2)CC1)C1CCOC1 (centres undefined),-17,·,·,-1.3,·,
O=C(NC1CCCC1)C(c1ccncc1)N(C(=O)c1csnn1)c1ccc(Cl)cc1 (centres undefined),5,·,·,0.2,·,
Cc1c(Cl)cccc1NC(=S)N1CCN(C(=O)C2CCCO2)CC1 (centres undefined),6,10,-3%,-1.1,-31,
CC(C)CN1C(=O)c2ccccc2C1(O)Cc1ccccc1 (centres undefined),7,-5,0%,8.4,16,
COc1cccc(/C=N/NC(=O)c2oc3nc(-c4ccccc4)cc(-c4ccco4)c3c2N)c1,-3,·,·,-9.2,·,
CCC(=O)Nc1ccc(C(=O)CSc2nnc(-c3ccc(O)cc3)n2CC2CCCO2)cc1OC (centres undefined),3,10,·,3.2,-7,
Cc1cc[n+](CC(=O)c2ccc(NC(=O)c3ccccc3)cc2)c2ccccc12,12,-5,7%,0.0,·,
CC1CCc2nc(NC(=O)CSc3nc4ccccc4o3)sc2C1 (centres undefined),44,3,-3%,4.0,-24,
O=C1C=C(c2ccccc2)C[C@H](c2cccs2)[C@H]1n1nnc([N+](=O)[O-])n1,100,15,?,1.1,-16,
Nc1ccc2nc(SCc3cccc(F)c3)sc2c1,-5,-30,43%,4.0,·,
Cc1cccc(NC(=O)CCN2CCC(C(N)=O)CC2)c1,3,·,·,-1.4,·,
CCOc1ccccc1Nc1nnc(Cc2ccccc2Cl)c(=O)[nH]1,-1,6,-3%,31*,-57,Arbovirus inh repeat=16
O=C1CCCc2ccccc2N1Cc1c(Cl)cccc1Cl,6,-4,-4%,2.8,-36,
CNc1c([N+](=O)[O-])cnn1-c1ccc(C)cc1,-4,6,-1%,-2.7,-32,
CC1=NN(Cc2ccccc2)C(=O)/C1=C\c1ccc(N(C)C)cc1,-8,-10,-20%,94*,-1,

# The last 2 entries of the part above open the next one:
SMILES,Mtb bLac sens,Arbovirus inh,Mtb H37Rv,RecA splice inh,YopH inh,others
CNc1c([N+](=O)[O-])cnn1-c1ccc(C)cc1,-4,6,-1%,-2.7,-32,
CC1=NN(Cc2ccccc2)C(=O)/C1=C\c1ccc(N(C)C)cc1,-8,-10,-20%,94*,-1,
CCOC(=O)C1CCCN(C2CC(=O)N(c3cccc(C)c3)C2=O)C1 (centres undefined),?,6,-4%,-4.5,-50,
COC(=O)c1ccc(NC(=O)CSc2nc3[nH]ncc3c(=O)[nH]2)cc1,0,·,·,-2.3,·,
CCOc1cccc(NC(=O)CSc2nc(C)c3c(c2C#N)CCCC3)c1,7,-4,0%,1.0,25,
S=C(NCc1ccccc1)Nc1ccc(Cl)cc1,1,4,-4%,7.9,·,

# Not all compounds are listed; rates above refer to the full screens.
